# VDR inhibitor: Inhibitors of the vitamin D receptor (VDR): qHTS; Vitamin D3 receptor (Homo sapiens), P11473; VDR-SRC2-3 peptide fluorescence polarization, 2 h; Potency, µM, inactives show max response, negative = inhibition, usual class: inhibitors; actives 0.93% (n = 400,000); AID 504847, 2011; active means well fitted inhibition curve with a large enough effect; inconclusive means small, poorly fitted or top-dose-only effect, or another doubt; inactive means no such curve, though single readings can be large or run the other way; further: series mostly up to about 120 µM
# Target sequence (P11473 whole entry, looked up): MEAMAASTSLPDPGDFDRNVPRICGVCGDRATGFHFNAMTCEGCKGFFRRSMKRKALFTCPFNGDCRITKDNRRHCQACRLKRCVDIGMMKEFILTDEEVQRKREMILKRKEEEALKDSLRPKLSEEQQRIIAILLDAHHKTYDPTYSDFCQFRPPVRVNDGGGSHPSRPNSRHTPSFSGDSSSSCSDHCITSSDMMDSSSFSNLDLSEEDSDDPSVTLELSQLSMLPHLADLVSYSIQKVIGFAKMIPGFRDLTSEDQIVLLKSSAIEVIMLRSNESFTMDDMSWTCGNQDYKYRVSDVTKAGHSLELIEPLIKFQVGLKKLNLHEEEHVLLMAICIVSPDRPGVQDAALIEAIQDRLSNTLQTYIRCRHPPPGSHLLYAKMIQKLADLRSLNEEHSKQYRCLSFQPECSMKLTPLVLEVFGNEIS
#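 Compounds are added to VDR with labelled SRC2-3 coactivator peptide and held 2 h at room temperature. Inhibition of the VDR–peptide interaction is then read as a change in fluorescence polarization.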
# * marks the source's active call; other numbers are inactive results; ? = inconclusive; & = joins results of further samples; ! = repeats disagree. On the % scale 0 is the no-effect control and ±100 the full control effect; potency means the concentration at half of the fitted maximal effect. The list is partial (hit frequency here may not be typical).
SMILES,VDR inhibitor
Clc1cccc(CNCCc2ccc3c(c2)OCO3)c1,-1.6%
COc1ccc2c(c1)NP(=S)(Oc1ccccc1)N2 (stereo not drawn),?
COc1ccccc1CN1CCCCC1c1cccnc1 (stereo not drawn),2.1%
O=C(O)CC1OCC=C2CN3CCC45c6ccccc6NC4C1C2CC35 (stereo not drawn),0.4%
CN1CCN(CC(=O)Nc2ccc(Cl)cc2C(=O)c2ccccc2)CC1,-7.8%
CN1CCC(O)(c2cccs2)C(C(=O)c2cccs2)C1 (stereo not drawn),?
C[C@]12CCC3[C@@H](CCC4=CC(=O)CC[C@@]43CO)C1CCC2=O (stereo partly drawn),-7.8%
COc1ccc(CN2Cc3cnnn3-c3ccccc3C2c2ccccc2)cc1 (stereo not drawn),2.7%
Cc1nc2cc(C(F)(F)F)ccc2n1C1CCN(Cc2nnnn2Cc2cccs2)CC1,10.0%
CCCCN(CC)c1c([N+](=O)[O-])cc(C(F)(F)F)cc1[N+](=O)[O-],-18.3%
CN1Cc2ccccc2-n2nncc2C1,1.9%
COC(=O)C1=C(c2ccccc2OCc2ccccc2)C[C@@H]2CC[C@H]1N2C(=O)NCc1ccc(F)cc1,-18.7%
NCC[C@H](O)C(=O)N[C@H]1C[C@@H](N)[C@@H](O[C@H]2O[C@@H](CN)[C@@H](O)[C@@H](O)[C@@H]2N)[C@@H](O[C@H]2O[C@@H](CO)[C@@H](O)[C@@H]2O)[C@@H]1O,2.9%
CCOc1cccc(C2NCc3ccccc3-n3cccc32)c1O (stereo not drawn),-12.2%
CC(C)C[C@H](NP(=O)(O)O[C@@H]1O[C@@H](C)[C@H](O)[C@@H](O)[C@H]1O)C(=O)N[C@@H](Cc1c[nH]c2ccccc12)C(=O)O,-14.7%
CC(=O)OC1N=C(c2ccccc2Cl)c2cc(Br)ccc2NC1=O (stereo not drawn),-13.0%
O[C@@H]1[C@@H]2O[P@@](O)(=S)OC[C@H]2O[C@H]1n1cnc2cc(Cl)c(Cl)cc21,-21.0%
Cc1cc(OCC(=O)NCc2ccc(S(N)(=O)=O)cc2)c2c3c(c(=O)oc2c1)CCC3,-9.8%
CCN(CC)C(=O)c1ccc2c(c1)C1C=CCC1C(C(=O)O)N2 (stereo not drawn),?
Cc1nn(Cc2ccc(Cl)cc2Cl)c(Cl)c1C(=O)O,7.7%
CCCCS(=O)(=O)N1CCN(C(=N)N[N+](=O)[O-])CC1,22.6%
CC(C)CCNC(=O)c1c(N)n(CC2CCCO2)c2nc3ccccc3nc12 (stereo not drawn),-9.1%
CCCCn1c(N)c(N(CCOC)C(=O)CN2CC=C(c3ccccc3)CC2)c(=O)[nH]c1=O,-2.7%
C=CCN1C[C@@H](C)N([C@H](c2ccc(C(=O)N(CC)CC)cc2)c2cccc(OC)c2)C[C@@H]1C,-7.0%
O=C(c1ccco1)c1cn(Cc2ccccc2)c2ccccc12,-0.7%

# Carrying on:
SMILES,VDR inhibitor
O=C(COc1ccccc1)N1CCN(C2CC3CCC2C3)CC1 (stereo not drawn),10.8%
O=c1[nH]cnc2nc(-c3ccc(N(CCCl)CCCl)cc3)[nH]c12,-10.0%
CC(Cc1ccccc1)/[N+]([O-])=C\c1ccc(C(F)(F)F)cc1 (stereo not drawn),3.7%
COc1ccc(-n2c(=O)[nH]c3ccccc3c2=O)cc1,-2.8%
Cn1cc(/C=C2\C(=O)NC(=O)N(c3ccccc3)C2=O)c2ccccc21,26.8%
O=c1[nH]c(=S)n(CCC2=CCCCC2)c(O)c1/C=N/N1CCOCC1,-10.8%
Cc1cc(Cl)ccc1C(=O)C1CCCN(Cc2ccon2)C1 (stereo not drawn),-1.3%
C/C(=N\Nc1ccccc1)c1c(O)n(-c2ccccc2)c(=O)[nH]c1=O,-5.2%
CC(=O)c1c(C)n(Cc2ccccc2Cl)c2ccc(O)cc12,3.0%
Cn1c(O)c(N=Nc2cccc(S(=O)(=O)N3CCOCC3)c2)c(=O)n(C)c1=O,5.8%
Cc1cc(N2CCOCC2)ccc1/C=C1\C(=O)NC(=O)N(c2ccccc2)C1=O,?
O=C1NC(=O)N(c2ccccc2)C(=O)/C1=C/c1ccoc1,-3.9%
COc1c(O)ccc2c1-c1c3c(cc4c1C(C2)N(C)CC4)OCO3 (stereo not drawn),4.8%
O=C(O)Cn1cc(/C=C2\C(=O)NC(=O)N(Cc3ccco3)C2=O)c2ccccc21,?
O=P1(Oc2ccccc2)OCCCS1 (stereo not drawn),-19.0%
COc1ccc(C(=O)C2CCCN(C3CSCCSC3)C2)c(OC)c1 (stereo not drawn),-10.8%
COP(=O)(/C=C(\Cl)c1ccccc1)/C=C(\Cl)c1ccccc1,-2.6%
CN(C)c1ccc(CN2CC=C(c3ccc(F)cc3)CC2)cc1,7.6%
Cc1ccc2c(c1)C1CN(C)CCC1N2C(=O)Cn1cnc2c1c(=O)n(C)c(=O)n2C (stereo not drawn),8.6%
CCN(CC)CCCC(C)N=C(c1ccccc1)c1c(O)n(C)c(=O)n(C)c1=O (stereo not drawn),-4.6%
C[n+]1ccc(-c2ccccc2)c2ccccc21,5.5%
CCCCC1(CN2CCCC2=O)C(=O)NC(=O)NC1=O,12.5%
CNNC,?
CCOC(=O)CSCCOc1ccc(C=C2C(=O)NC(=O)NC2=O)cc1OC,?
CC(=NCCN1CCCCC1)c1c(O)n(-c2ccccc2)c(=O)[nH]c1=O,-6.0%

# 3 successive records already listed, quoted:
SMILES,VDR inhibitor
CCN(CC)CCCC(C)N=C(c1ccccc1)c1c(O)n(C)c(=O)n(C)c1=O (stereo not drawn),-4.6%
C[n+]1ccc(-c2ccccc2)c2ccccc21,5.5%
CCCCC1(CN2CCCC2=O)C(=O)NC(=O)NC1=O,12.5%

# Looked up by structure from the list above (7):
SMILES,VDR inhibitor
COP(=O)(/C=C(\Cl)c1ccccc1)/C=C(\Cl)c1ccccc1,-2.6%
CCN(CC)CCCC(C)N=C(c1ccccc1)c1c(O)n(C)c(=O)n(C)c1=O (stereo not drawn),-4.6%
O=c1[nH]c(=S)n(CCC2=CCCCC2)c(O)c1/C=N/N1CCOCC1,-10.8%
Cc1ccc2c(c1)C1CN(C)CCC1N2C(=O)Cn1cnc2c1c(=O)n(C)c(=O)n2C (stereo not drawn),8.6%
CN(C)c1ccc(CN2CC=C(c3ccc(F)cc3)CC2)cc1,7.6%
Cc1cc(Cl)ccc1C(=O)C1CCCN(Cc2ccon2)C1 (stereo not drawn),-1.3%
Cn1c(O)c(N=Nc2cccc(S(=O)(=O)N3CCOCC3)c2)c(=O)n(C)c1=O,5.8%

# Later entries
SMILES,VDR inhibitor
ClC1=C(Cl)C2(Cl)C3C4C=CC(C4)C3C1(Cl)C2(Cl)Cl (stereo not drawn),6.4%
COc1ccc(C(=O)c2nc3ccccc3n2C(C)C)cc1,16.8%
Cc1ccnc(-n2c(-c3ccccc3)nc3ccccc3c2=O)c1,13.6%
O=C1NC(=O)N(c2ccc(Br)cc2)C(=O)/C1=C/c1ccsc1,44.7µM*
Cc1ccccc1CN1CCN(C(=O)Cc2ccccc2)CC1,0.3%
COC1=C(C)C(=O)O[C@]12C(=O)C(C)=C1CCCCN3[C@H]([C@@H]4C[C@H](C)C(=O)O4)CC[C@]132,-13.9%
COc1ccc(C(=O)C2CN(C)CC2c2ccc(Cl)cc2)cc1 (stereo not drawn),-12.0%
COc1ccc(-n2c(O)c(/C=C/C=Nc3ccccc3)c(=O)[nH]c2=O)cc1,7.2%
c1ccc(C2CC3CC4(CCCC4)N2O3)cc1 (stereo not drawn),5.3%
Cc1nn(C2CCOC(C)(C)C2)c2c1C(c1ccc3c(c1)OCO3)SCC(=O)N2 (stereo not drawn),-11.6%
O=C(CCc1nc(-c2ccccc2F)no1)N1CCC2(CC1)OCCO2,11.9%
C[C@@H](N)Cc1cnc[nH]1,79.4µM*!
CC(C)(C)C(=O)Nc1ccc(S(=O)(=O)N2CC3CC(C2)c2cccc(=O)n2C3)cc1 (stereo not drawn),-5.6%
COc1cc(/C=C/[N+](=O)[O-])ccc1OC(=O)c1cccnc1,25.1µM*
CCOC(=O)C(NS(=O)(=O)c1ccc(C)cc1)(C(F)(F)F)P(=O)(OCC(C)C)OCC(C)C (stereo not drawn),?
Cc1cccc(N2C(=O)NC(=O)/C(=C\c3ccc4c(c3)CCCN4Cc3ccccc3)C2=O)c1,?
C=C1C2[C@H](OC(C)=O)[C@@H]3CC(=O)[C@]4(C)OC[C@@]3(C)[C@@]4(O)[C@@H](OC(C)=O)[C@H](OC(C)=O)[C@@]2(COC(=O)c2ccccc2)[C@@H](OC(C)=O)C[C@@H]1O (stereo partly drawn),-5.7%
CC(=NCCCO)c1c(O)[nH]c(=O)[nH]c1=O,-3.8%
O=C(COc1ccc(Br)cc1)N1CCN(C2CCCC2)CC1,-12.0%
CN1C[C@H](CO)C=C2c3cccc4[nH]cc(c34)C[C@@H]21,-5.4%
O=C(Nc1c(F)cc(F)cc1F)c1cccn(Cc2ccccc2)c1=O,16.5%
CCCNS(=O)(=O)c1ccc(OCC(=O)N2CCN(Cc3ccc4c(c3)OCO4)CC2)c(C)c1,-3.0%
NCC(CP(=O)(O)O)c1ccc(Cl)cc1 (stereo not drawn),-11.3%
Cn1c(=O)n(C)c2cc(CNCCc3ccccc3)ccc21,4.7%
CN1CCN(C(=S)c2ccc([N+](=O)[O-])cc2)CC1,?

# Later entries
SMILES,VDR inhibitor
Cc1cc(OCC(=O)OC(C)C)c2c3c(c(=O)oc2c1)CCCC3,8.0%
COc1cccc(CCNCc2ccc(SC)cc2)c1,-12.8%
CN(C)CC1CSCCC1(O)c1ccc(C(F)(F)F)cc1 (stereo not drawn),-1.1%
CCN1C(=O)NC(=O)/C(=C\c2cn(CC(=O)N3CCCCC3)c3ccccc23)C1=O,-10.1%
Fc1ccc(C[n+]2c(-c3ccccc3)cc(-c3ccccc3)cc2-c2ccccc2)cc1,-0.8%
Cc1cccc(N2C(=O)NC(=O)/C(=C/c3ccc(N4CCOCC4)cc3)C2=O)c1,-13.3%
CCCCn1c(O)c(C(CC)=NCc2cc(OC)cc(OC)c2)c(=O)[nH]c1=O,-0.7%
C=C1C(=O)O[C@H]2C[C@@H](C)[C@@H]3C=CC(=O)[C@@]3(C)C[C@H]12,-20.1%
OC(CCNCCc1c[nH]c2ccccc12)C(F)(F)Cl (stereo not drawn),7.7%
S=P(NCCNP(=S)(N1CC1)N1CC1)(N1CC1)N1CC1,?
O=C(c1ccccc1F)c1cn(CC(=O)N2CCCCC2)c2ccccc12,7.2%
COC(=O)C1=C(c2ccccc2OCc2ccccc2)C[C@@H]2CC[C@H]1N2C(=O)NCCOc1ccccc1,11.2%
CC12CCC3C(CCC4CC(=O)OCC43C)C1CCC2O (stereo not drawn),-0.4%
CCCC[N+]12CCC(CC1)C(=C(c1ccccc1)c1ccccc1)C2,-4.8%
CCOP(=S)(OCC)Oc1cc(C)oc(=O)c1Cl,28.2µM*
CCC1=CC2CN3CCc4c([nH]c5ccccc45)[C@@](C(=O)OC)(C2)[C@@H]13,?
CC(=O)C1(O)CCC2C3CCC4=C(Cl)C(=O)CCC4(C)C3CCC21C (stereo not drawn),-23.4%
O=C1CC(=O)N(Cc2ccccc2)C(=S)N1,-18.1%
Nc1nonc1C(=O)N/N=C/c1ccc([N+](=O)[O-])o1,-13.6%
O=C(COC(=O)Cc1ccccc1)NC(=O)NC1CCCCC1,2.9%
COC1C(O)C(OC2CC[C@]3(C=O)C4C(OC(C)=O)C[C@@]5(C)C(C6=CC(=O)OC6)CC[C@]5(O)C4CC[C@]3(O)C2)OC(C)C1OC(C)=O (stereo partly drawn),-6.3%
O=c1[nH]c(=O)n(C2CCCCCC2)c(O)c1C=NCCCN1CCOCC1,-13.8%
CC(NCc1ccc(Cl)cc1Cl)C(O)c1ccccc1 (stereo not drawn),14.6%
Cc1ccc(Cn2c(C)c3cnn(CC(=O)N4CCC5(CC4)OCCO5)c(=O)c3c2C)cc1,1.0%
O=C(c1ccc(N2CCCCCC2)c([N+](=O)[O-])c1)N1CCC2(CC1)OCCO2,-14.5%

# Later entries.
SMILES,VDR inhibitor
CN1CCN(C(=O)COc2ccc(N(C)S(=O)(=O)c3ccc(F)cc3)cc2)CC1,-7.2%
CC(=O)Nc1ccc(OC(=O)N(C)c2ccccc2)cc1,-5.4%
CCCCn1c(O)c(C(C)=NCCN2CCCCC2)c(=O)[nH]c1=O,-4.8%
O=C1NC(=O)C(=Cc2ccc(-c3ccccc3[N+](=O)[O-])o2)C(=O)N1,39.8µM*
O=C(CSC1c2ccccc2-c2ccccc21)N/N=C/c1ccc(C(=O)O)cc1,-14.0%
CC(=O)c1cc(C(C)=O)c(C)[n+](C)c1C,-5.6%
O=C(Oc1ccccc1)N1CCC2(CCN(Cc3ccncc3)CC2)CC1,-2.0%
CN1C(=O)N(C)C(=O)C2(Cc3cc([N+](=O)[O-])ccc3N3CCN(C(=O)c4ccccc4)CC32)C1=O (stereo not drawn),3.4%
O=[N+]([O-])c1cccnc1N1CCCNCC1,12.3%
CSc1nc(NC(C)C)nc(NC(C)C)n1,-8.0%&3.7%
O=P(O)(O)CN1CCNCCN(CP(=O)(O)O)CCNCC1,-7.1%
NC(CCCCCP(=O)(O)O)C(=O)O (stereo not drawn),1.7%
CP(=O)(Nc1ccccc1)C(Cl)(Cl)Cl (stereo not drawn),2.3%
O=c1[nH]c(=O)n(CCC2=CCCCC2)c(O)c1/C=N/N1CCOCC1,-7.4%
Clc1ccc2nc3c(c(-c4ccccc4)c2c1)CNCC3,-15.4%
CCOc1ccc(N2C(=O)/C(=C\c3cccs3)C(=O)NC2=S)cc1,5.9%
O=C(Cn1cc(C=C2C(=O)NC(=O)NC2=O)c2ccccc21)NCC1CCCO1 (stereo not drawn),-6.8%
O=c1c2ccccc2nc(/C=C/c2ccccc2)n1-c1ccccc1O,3.5%
N#Cc1cc2c(nc1SCC(=O)Nc1ccc(Cl)cc1)C1CCN2CC1,-2.2%
NS(=O)(=O)c1ccc(N2CCNCC2)cc1,7.4%
Cc1ccc(/C=C2\C(=O)NC(=O)N(CCc3ccc(F)cc3)C2=O)o1,-25.4%
Cc1ccsc1C(=O)C1CCCN(CCO)C1 (stereo not drawn),4.0%

# Screens as filed in PubChem.
